Source: PubChem
KCNQ2 enhance: potentiators of rat KCNQ2 potassium channel; Potassium voltage-gated channel subfamily KQT member 2 (Rattus norvegicus), O88943; CHO-K1 KCNQ2, FluxOR thallium flux fluorescence; active compounds read high; B-score at 10 µM; 310,000 compounds, 0.54% hits; AID 2239, 2010;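 active means fluorescence ratio B-score at least 3 SD of library B-scores, with initial fluorescence B-score within 3 SD, cut at about 5.3 in these data; same plate scores as AID 2156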;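 further: B-score of peak minus minimum over baseline fluorescence ratio after K+ and Tl+ stimulus; positive B-score means potentiation of KCNQ2 with more thallium influx and brighter signal; only the inactives scoring about 0 or higher are listed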
Target sequence (O88943 whole entry, looked up): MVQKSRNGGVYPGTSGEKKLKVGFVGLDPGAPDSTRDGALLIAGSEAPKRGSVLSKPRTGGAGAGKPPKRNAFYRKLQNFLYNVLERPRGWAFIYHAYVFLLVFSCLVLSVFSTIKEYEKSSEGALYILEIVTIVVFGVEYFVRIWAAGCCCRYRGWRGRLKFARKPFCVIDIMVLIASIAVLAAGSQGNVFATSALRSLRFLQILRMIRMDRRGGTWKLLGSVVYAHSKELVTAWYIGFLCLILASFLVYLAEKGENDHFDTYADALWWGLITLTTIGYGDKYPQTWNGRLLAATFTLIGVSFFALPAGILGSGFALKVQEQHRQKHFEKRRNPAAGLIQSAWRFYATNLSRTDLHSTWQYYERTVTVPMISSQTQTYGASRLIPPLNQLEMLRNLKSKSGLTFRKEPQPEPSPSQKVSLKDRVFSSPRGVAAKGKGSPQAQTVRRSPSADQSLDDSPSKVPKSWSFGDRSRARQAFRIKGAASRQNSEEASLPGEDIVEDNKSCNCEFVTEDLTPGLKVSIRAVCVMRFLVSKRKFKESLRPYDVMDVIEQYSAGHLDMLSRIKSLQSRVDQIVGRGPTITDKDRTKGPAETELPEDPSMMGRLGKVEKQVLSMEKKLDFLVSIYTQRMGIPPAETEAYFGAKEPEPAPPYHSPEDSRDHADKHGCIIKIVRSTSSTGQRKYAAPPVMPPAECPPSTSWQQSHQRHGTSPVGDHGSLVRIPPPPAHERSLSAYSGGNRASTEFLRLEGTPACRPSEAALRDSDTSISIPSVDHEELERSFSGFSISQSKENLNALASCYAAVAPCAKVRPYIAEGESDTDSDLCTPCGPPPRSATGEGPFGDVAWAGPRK
KCNQ2 enhance baseline: second read-out of KCNQ2 enhance, no call of its own (marks repeat the call); B-score; compound at 10 µM; measured here: initial fluorescence intensity artifact check;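 brightness before thallium and not channel activity; 0 = typical well and far values either way flag optical interference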
An asterisk follows results filed as active. Not all compounds are listed; count on the stated rates, not on these rows.

SMILES	KCNQ2 enhance	KCNQ2 enhance baseline
Cc1c(CCC(=O)NCCCCCC(=O)O)c(=O)oc2cc3occ(-c4ccccc4)c3cc12	3	-1.6
CCOc1ncccc1C(=O)OCC(=O)c1ccccc1	0.01	-2
O=C1C(=O)c2ccccc2C(O)=C1c1cccc([N+](=O)[O-])c1	0.07	0.21
O=C(Nc1ccc(Oc2ccc3c(c2)C(=O)N(c2ccc(O)cc2)C3=O)cc1)c1cccs1	1.7	0.32
CN(C)CCNC(=O)C1(O)c2cc(Br)ccc2NC(=O)N1c1ccc(Cl)cc1 (stereo not drawn)	1.2	-1.1
O=C(Nc1cccnc1Cl)c1ccc(S(=O)(=O)N2CCCCCC2)cc1	0.5	0
COc1ccc(NC(=O)CN2C(=O)NC3(CCCC3)C2=O)cc1OC	0.7	0.68
CC(C)c1c(C(=O)N/N=C/c2ccncc2)nnn1-c1nonc1N	0.44	0.86
CCCCOc1ccc(-c2csc(N)n2)cc1[N+](=O)[O-]	1.8	1.5
O=C(Nc1nc(-c2cccc(Br)c2)cs1)Oc1ccccc1	0.17	-1.1
CC(=O)Nc1ccc(NC(=O)C(C)OC(=O)CCC(=O)c2ccc(F)cc2)cc1 (stereo not drawn)	1.5	1.2
CCc1cccc(NC(=O)c2ccc(Br)o2)c1	2.1	-0.32
CCc1ccc(NC(=O)CSCc2ccc(C(=O)O)cc2)cc1	0.18	-0.03
CN(CCc1ccccn1)C(=O)CCC1CCCN(Cc2ccccc2OC(F)F)C1 (stereo not drawn)	1.2	-0.04
Cc1nonc1CN(C)C(=O)CC1C(=O)NCCN1Cc1ccccc1C(F)(F)F (stereo not drawn)	0.25	-0.26
CC(=O)N1CCc2cc(Br)cc(S(=O)(=O)N3CCC(C(=O)O)CC3)c21	1.1	-1.4
CC1CCCCN1C(=S)NCCc1ccccc1 (stereo not drawn)	0.77	0.39
CCCN(CCC)Cc1c(C(=O)N/N=C/c2ccco2)nnn1-c1nonc1N	0.6	-1.3
C/C(=N/NC(=O)CCc1ccccc1)c1ccco1	0.52	-1.2
CC(=O)N(C)c1ccc(N2CCOCC2)c2c1C(=O)c1ccccc1C2=O	0.13	-0.33
CS(=O)(=O)Nc1cccc(C2=NN(C(=O)CCC(=O)O)C(c3cccs3)C2)c1 (stereo not drawn)	0.8	1.4
O=C(CN(Cc1ccc(F)cc1)C(=O)CCC(=O)Nc1nccs1)NCC1CCCO1 (stereo not drawn)	1.2	-1.2
COCCCN1C(=O)C(=O)/C(=C(/O)c2ccc3c(c2)CC(C)O3)C1c1cccnc1 (stereo not drawn)	0.18	-0.36
COCCNc1nc2c(c(=O)n(Cc3ccc(OC)cc3)c(=O)n2C)n1C	1.9	-0.07
COc1ccccc1OCCNC(=O)c1ccccc1C	1.5	-1.8
O=C(CC1CCCC1)NCCS(=O)(=O)N1CCN(c2ccccc2F)CC1	0.09	0.14
Cc1ccnc(NC(=O)CCCc2c[nH]c3ccccc23)c1	0.27	-0.32
Cc1cc(NCCCN2CCOCC2)n2nc(C)c(-c3ccc(F)cc3)c2n1	1.1	-0.49
COCCn1c(SC(C)C(=O)NCC2CCCO2)nc2scc(-c3ccc(F)cc3)c2c1=O (stereo not drawn)	2	0.06
O=c1c2cc([N+](=O)[O-])cc([N+](=O)[O-])c2[nH]n1-c1ccccc1	0.51	-2.5
Cc1cccc(CNC(=O)Cn2ccc3cc(S(=O)(=O)N4CCCC4)ccc32)c1	0.15	0.52
COc1ccc(C(C)NS(=O)(=O)Cc2ccccc2)cc1 (stereo not drawn)	0.02	-0.14
CCOc1ccc2nc(N(CCCN(C)C)C(=O)c3ccc(S(=O)(=O)N4CCCC4)cc3)sc2c1	1.3	0
COc1ccc(-n2nc(C(=O)NCC(=O)N3CCN(c4ccccc4F)CC3)c3ccccc3c2=O)cc1	1.6	-1.6
Cc1nnc(SCC(=O)N2CC(C)OC(C)C2)n1-c1ccccc1 (stereo not drawn)	1.7	1.1
c1ccc2[nH]c(NCc3ccc4c(c3)OCO4)nc2c1	0.89	0.42
NC(=O)c1ccccc1OCC(=O)NC12CC3CC(CC(C3)C1)C2	2.2	-0.22
CC1CCCCC1NC(=O)CCS(=O)(=O)c1cc2c(cc1Cl)NC(=O)CO2 (stereo not drawn)	1.6	0.42
COc1ccc2nc(SCC(=O)NCc3ccccc3)[nH]c2c1	0.22	-1.3
O=C(O)CC(NC(=O)c1sc2ccccc2c1Cl)c1ccc(OC2CCCC2)cc1 (stereo not drawn)	0.26	-1.6

Given as a markdown table: part of the list above.
| mol | KCNQ2 enhance | KCNQ2 enhance baseline |
| --- | --- | --- |
| Cc1nnc(SCC(=O)N2CC(C)OC(C)C2)n1-c1ccccc1 (stereo not drawn) | 1.7 | 1.1 |
| c1ccc2[nH]c(NCc3ccc4c(c3)OCO4)nc2c1 | 0.89 | 0.42 |
| NC(=O)c1ccccc1OCC(=O)NC12CC3CC(CC(C3)C1)C2 | 2.2 | -0.22 |
| CC1CCCCC1NC(=O)CCS(=O)(=O)c1cc2c(cc1Cl)NC(=O)CO2 (stereo not drawn) | 1.6 | 0.42 |
| COc1ccc2nc(SCC(=O)NCc3ccccc3)[nH]c2c1 | 0.22 | -1.3 |
| O=C(O)CC(NC(=O)c1sc2ccccc2c1Cl)c1ccc(OC2CCCC2)cc1 (stereo not drawn) | 0.26 | -1.6 |

Compounds listed so far that have bromine:
SMILES	KCNQ2 enhance	KCNQ2 enhance baseline
CN(C)CCNC(=O)C1(O)c2cc(Br)ccc2NC(=O)N1c1ccc(Cl)cc1 (stereo not drawn)	1.2	-1.1
O=C(Nc1nc(-c2cccc(Br)c2)cs1)Oc1ccccc1	0.17	-1.1
CCc1cccc(NC(=O)c2ccc(Br)o2)c1	2.1	-0.32
CC(=O)N1CCc2cc(Br)cc(S(=O)(=O)N3CCC(C(=O)O)CC3)c21	1.1	-1.4

Next part.
SMILES	KCNQ2 enhance	KCNQ2 enhance baseline
CC1CCCC(C)N1NC(=O)c1ccc(Cl)c(S(N)(=O)=O)c1 (stereo not drawn)	0.03	1.4
CSc1sc(C)cc1C=O	0.16	-1.2
Cn1c(N)c(S(=O)(=O)N2CCN(C(=O)c3ccco3)CC2)c(=O)n(C)c1=O	0.07	2.2
Cc1cc(N2CCOCC2)nc(-c2ccccc2O)n1	2.5	-0.19
CC1CC(C)CN(S(=O)(=O)c2ccc3c(c2)oc(=O)n3CC(=O)N2CCOCC2)C1 (stereo not drawn)	1.1	1.1
CCCn1c2ccccc2c2cc(C(=O)O)ccc21	0.96	0.21
Cc1c(CC(=O)NCCCCCC(=O)O)c(=O)oc2cc3c(cc12)CCC(C)(C)O3	1.3	0.38
O=C(Nc1ccccc1Cl)OC1CCCCC1	1.2	2.4
Cc1ccccc1NC(=O)/C=C1\SC(=O)NC1=O	0.19	-0.78
O=C(NCC1CCCO1)c1ccc2c(=O)n(Cc3ccc(Cl)cc3)c(=S)[nH]c2c1 (stereo not drawn)	0.12	-2
O=C(Oc1ccc(C(=S)N2CCOCC2)cc1)c1ccc([N+](=O)[O-])cc1[N+](=O)[O-]	0.54	-0.78
COCCN1C(=O)N(c2ccc(Cl)cc2)C(=O)C1CC(=O)Nc1cc(OC)cc(OC)c1 (stereo not drawn)	0.35	0.23
COc1ccc(CCN(C)C2CCCN(C(=O)CCSC)C2)cc1OC (stereo not drawn)	1.3	1.6
O=S(=O)(NNc1nccc(C(F)(F)F)n1)c1cccc(Cl)c1Cl	0.65	-0.41
CCOCCc1nnc(NC(=O)C(CC)c2ccccc2)s1 (stereo not drawn)	0.97	1.1
C=CCC1C=C(C)CC(CC=C)N1 (stereo not drawn)	1.1	-0.98
COc1ccc(C(=O)Nc2ccc3[nH]ncc3c2)cc1OC	0.54	1.8
Cc1ccc(-c2cc(C(=O)Nc3cccnc3)[nH]n2)c(O)c1C	0.04	-2.8
O=C(NCCc1ccccc1)c1cc(=O)[nH]c2ccccc12	0.01	-0.18
CC(OC(=O)CCc1nc2ccccc2c(=O)[nH]1)C(=O)NC1CCCC1 (stereo not drawn)	1.2	0.99
COc1ccc(-c2nc(CS(=O)CC(=O)NCCc3ccc(C)cc3)c(C)o2)cc1OC (stereo not drawn)	1	-0.51
O=C(O)C1(c2cccc(Cl)c2)CCC1	0.06	1.9
O=C(CC(c1ccccc1)(c1ccccc1)c1ccccc1)N[C@@H](Cc1ccc(O)cc1)C(=O)O	1.9	-1.8
N#Cc1cccc(NC(=O)Cc2ccsc2)c1	0.42	1.3
COc1cccc(-c2cc(C(=O)Nc3cnn(Cc4ccccc4C)c3)no2)c1	1.6	-1.6
CN(CC(=O)Nc1ccccc1Cl)C(=O)c1cc(=O)[nH]c2ccccc12	1.3	-1
COc1ccc(NC(=O)CSc2nccn2-c2ccccc2)c(OC)c1	1.1	-0.12
O=C(COc1ccc(Cc2ccccc2)cc1)c1ccc(F)cc1	6.7*	-1.8*
CN(C)CCCN(C(=O)c1cccc(N2C(=O)CCC2=O)c1)c1nc2cc3c(cc2s1)OCO3	0.66	-1.1
CCCCNC(=O)OC(C)CNC(=O)Oc1cccc(C)c1 (stereo not drawn)	0.46	-0.12
Cc1ccc(C)c(CN2CCC(CNC(=O)Nc3ccc(Br)cc3F)CC2)c1	1.3	0.35
CCN(CC)C(=O)CSc1nc2cc3c(cc2c(=O)n1Cc1ccco1)OCO3	0.68	0.03
CCOC(=O)CNC(=S)N(CCCN1CCCCCC1)Cc1cccs1	0.15	1.9
Cc1cc(C)nc(SCC(=O)NC2=NN=C(c3ccc(Br)cc3)CS2)n1	0.39	0.01
CCOC(=O)c1ccccc1OCc1cc(/C=N/n2cncn2)ccc1OC	1.2	-0.73
CCN1C(=O)c2ccccc2S(=O)c2ccc(C(=O)N3CCCCCC3)cc21 (stereo not drawn)	0.14	-0.08
Cc1ccc(/C([O-])=C(/C(=S)NCc2ccco2)[n+]2ccccc2)cc1[N+](=O)[O-]	0.13	-0.02
CCn1c(SCC(=O)N2CCC(C)CC2)nnc1-c1ccco1	0.76	2.1
COc1cc(/C=C(/NC(=O)c2ccccc2)C(=O)N2CCOCC2)c([N+](=O)[O-])cc1OC	0.26	-2.3
N#CCSc1ccc(-c2nc3ccccc3[nH]2)cn1	0.92	0.18
COc1ccc(S(=O)(=O)CCc2nnc(NC(=O)c3cccs3)s2)cc1	0.4	1.1
CCc1c(C)sc(NC(=O)c2cc(-c3cc(OC)ccc3OC)on2)c1C#N	0.67	-0.25
CC(=O)Oc1ccc2cc(-c3ccccc3)c(=O)oc2c1	0.04	1.7
Cc1ccc(OC(=O)c2ccc(N3CCOCC3)c([N+](=O)[O-])c2)cc1	2	0.57
O=C(NCCc1ccc(F)cc1)C1CCCO1 (stereo not drawn)	0.15	-0.16
OC1(c2ccccn2)COc2ccccc2O1 (stereo not drawn)	0.19	3.5
FC(F)(F)Oc1ccc(Nc2nc(N3CCOCC3)nc(N3CCOCC3)n2)cc1	0.29	0.78
CCOc1ccc(CNCCCSc2ncccn2)cc1OC	1.1	0.93
NC(=O)C1CCCN(C(=S)Nc2ccccc2)C1 (stereo not drawn)	0.28	-1.4
COc1ccc(CCNc2nnc(C)c(=O)[nH]2)cc1OC	0.28	1.1
Cc1ccc(SCC(=O)N2CCc3ccccc32)cc1	0.03	1.2
CCC(Cc1ccccc1)NC(=O)CSc1ccsc1[N+](=O)[O-] (stereo not drawn)	2.3	-0.2
CC(NC(=O)Cc1ccsc1)c1ccc(Cl)cc1Cl (stereo not drawn)	1.3	-1.1
O=S(=O)(Nc1ccon1)c1cc(Cl)ccc1Cl	2.1	-0.15
CCOC(=O)Cc1csc(NC(=O)Cc2ccccc2[N+](=O)[O-])n1	0.49	-2.2
O=C(CCS(=O)(=O)Cc1ccccc1)NC1CCCCC1	0.98	-0.31
CCCCC(=O)NS(=O)(=O)c1ccc(NS(C)(=O)=O)cc1	0.56	-1.3
COc1ccc(C(OC(=O)c2ccco2)C(=O)NCC2CCCO2)cc1 (stereo not drawn)	0.03	0.51
O=C(O)c1ccc(-c2nc(-c3ccc(Cl)cc3Cl)cs2)cc1	2.9	-0.42
COc1cc(CN(C)CC2CCCN(CCc3cccc(C(F)(F)F)c3)C2)ccc1O (stereo not drawn)	3	-0.01

Further compounds follow.
SMILES	KCNQ2 enhance	KCNQ2 enhance baseline
CC(=O)c1c(C(C)=O)c(C)n(-c2nc(-c3ccc(C)c(C)c3)c(C)s2)c1C	1.1	0.09
CCn1c(SCC(=O)c2cc(C)n(C)c2C)nnc1-c1ccccc1	0.6	-1.6
COc1cccc(CNC(=O)CCNS(=O)(=O)c2ccc(Br)s2)c1	0.44	1.2
O=C(O)c1ccccc1C(=O)Nc1ccc(-c2csc(-c3ccccc3)n2)cc1	1.9	0.39
O=C(Nc1nc2ccccc2s1)C1c2ccccc2Oc2ccccc21	0.29	-1.6
Cc1cccc(C(=O)OCC(=O)NC(=O)c2ccccc2)c1O	0.05	-0.27
COc1ccc(C(=O)COC(=O)Cc2n[nH]c(=O)c3ccccc23)c(OC)c1	0.01	-0.83
Cc1ccc(NC(=O)CN(c2ccc(C)cc2)S(=O)(=O)c2cccc3nonc23)cc1	0.03	1.3
COc1ccccc1-n1c(SCC(=O)NC2CCCCC2)nc2c(c1=O)SCC2	0.57	-0.01
CCn1c(-c2cccs2)nc2ccccc21	2.7	1.8
S=C(/N=c1/sccn1Cc1ccccc1)NC1CC1	0.34	0.23
CC(NC(=O)CCCCCNC(=O)N1CCn2c1nc1ccccc12)c1ccccc1 (stereo not drawn)	0.05	-1.4
Cc1ccc(NC(=O)CC2SC(=O)NC2=O)cc1 (stereo not drawn)	0.76	-0.14
O=S(=O)(c1ccccc1)c1ccccc1/C=N\O	1.1	-1.2
